NPYLR7 agonist – activates Aedes aegypti NPYLR7 receptor; HEK293T NPYLR7/Galpha15, GCaMP6s calcium fluorescence; 0.15% of 270,000 active; AID 1259423; activation, % at 10 µM; in the data active means activation above about 40%;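 further: 0% = vehicle and 100% = reference agonist at the receptor; some compounds past the cut are filed as inactive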
NPYLR7 agonist max-min – further read-out of NPYLR7 agonist, marked with its call; activation, %; measured here: Max-Min RFU normalised activation; some inactives read as strong as hits;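 span of the calcium signal over five minutes; 0% = vehicle and 100% = native peptide agonist; compound fluorescence can raise it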
* marks the source's active call; other numbers are inactive results; & = joins results of further samples.

O=C(c1coc(COc2ccccc2)n1)N1CCN(c2ccccc2)C(=O)C1 was read as NPYLR7 agonist 8.7 and NPYLR7 agonist max-min 4.6.
`Cc1cccnc1C(NC(=O)C1CCN(Cc2ccc(Cl)c(Cl)c2)CC1)c1ccccc1` (stereo not drawn) gave NPYLR7 agonist 9.9 and NPYLR7 agonist max-min 0.0.
`CC(=O)CSc1nc2sc3c(c2c(=O)n1CC(C)C)CCCC3` gave NPYLR7 agonist 3.9 and NPYLR7 agonist max-min 0.2.
For CCc1nnc(N=Cc2nc(-c3ccc(C)cc3)oc2O)s1 the results were NPYLR7 agonist 0.1 and NPYLR7 agonist max-min 0.2.
`Cc1nc(CN(C)c2nccc(N(C)C)n2)cs1` gave NPYLR7 agonist 1.0 and NPYLR7 agonist max-min -2.0.
`Cc1csc(NC(=O)CSc2nc(=O)n(CC3CCCO3)c3c2CCC3)n1` (stereo not drawn) gave NPYLR7 agonist -0.3 and NPYLR7 agonist max-min -5.5.
O=C1/C(=C/c2cccnc2)C2(CCCC2)Oc2ccccc21 was read as NPYLR7 agonist 11.1 and NPYLR7 agonist max-min 9.0.
Cc1cc([N+](=O)[O-])nn1CC(=O)Nc1ccccn1 was read as NPYLR7 agonist 0.0 and NPYLR7 agonist max-min -3.0.
For O=C(c1ccc(C(F)(F)F)c(F)c1)N1CCC(Cc2ccc(-n3cccc3)cc2)CC1 the results were NPYLR7 agonist 0.5 and NPYLR7 agonist max-min 5.5.
For CCN(Cc1cnn(C)c1)Cc1cnn(-c2cccc(C)c2)c1 the results were NPYLR7 agonist -3.7 and NPYLR7 agonist max-min -7.1.

Among those listed so far, two contain a halogen:
`Cc1cccnc1C(NC(=O)C1CCN(Cc2ccc(Cl)c(Cl)c2)CC1)c1ccccc1` (stereo not drawn) gave NPYLR7 agonist 9.9 and NPYLR7 agonist max-min 0.0.
For O=C(c1ccc(C(F)(F)F)c(F)c1)N1CCC(Cc2ccc(-n3cccc3)cc2)CC1 the results were NPYLR7 agonist 0.5 and NPYLR7 agonist max-min 5.5.

(more compounds)
Screening COc1ccc(Cl)cc1NC(=O)N1CCCCC1CCn1ccnc1 (stereo not drawn) returned NPYLR7 agonist -3.3 and NPYLR7 agonist max-min -10.5.
Screening O=S(=O)(NCCc1nnc2ccc(SCc3ccc(Cl)cc3Cl)nn12)c1ccccc1 returned NPYLR7 agonist 4.3 and NPYLR7 agonist max-min -5.2.
Screening CC1=C(C)C(=O)C(N2CCOCC2)=CC1=O returned NPYLR7 agonist -1.6 and NPYLR7 agonist max-min -2.1.
Screening CN(CC(=O)Nc1ccc(Cl)c(C(F)(F)F)c1)C(=O)c1ccc2c(c1)CCN2S(C)(=O)=O returned NPYLR7 agonist -2.4 and NPYLR7 agonist max-min 5.6.
For CCn1ccnc1CN1CCCC(CCc2cccc(OC)c2)C1 (stereo not drawn) the results were NPYLR7 agonist 9.2 and NPYLR7 agonist max-min 3.9.
Screening CCOC(=O)N1CCN(C(=O)c2cccc(CSc3nc(Cl)cc(N4CCN(Cc5ccccc5)CC4)n3)c2)CC1 returned NPYLR7 agonist 19.4 and NPYLR7 agonist max-min 22.0.
`Cc1nc(C2CCCN2CC(=O)N(C)C2CCS(=O)(=O)C2)no1` (stereo not drawn) gave NPYLR7 agonist 7.3 and NPYLR7 agonist max-min 6.6.
For Cn1nc2c(cc1=O)CN(C(C(N)=O)c1ccc(F)cc1)CC2 (stereo not drawn) the results were NPYLR7 agonist 1.4 and NPYLR7 agonist max-min 0.7.
Cc1ccc(F)cc1S(=O)(=O)N1CCN(c2c3c(nc4ncnn24)CCC3)CC1 was read as NPYLR7 agonist 30.2 and NPYLR7 agonist max-min 20.9.
For Cc1c(C(=O)O)c(CC(C)C)nn1-c1ccc([N+](=O)[O-])cc1 the results were NPYLR7 agonist 6.7 and NPYLR7 agonist max-min 14.7.
Cc1[nH]c2c(C(=O)N3CCCC(CCC(=O)NCc4ccccc4F)C3)cccc2c1C (stereo not drawn) was read as NPYLR7 agonist 5.4 and NPYLR7 agonist max-min 5.2.
For COc1cccc(-c2nnc(SCc3ccc(C(=O)O)cc3)n2-c2ccc(F)cc2)c1 the results were NPYLR7 agonist -2.2 and NPYLR7 agonist max-min -6.2.
`O=C1CN(c2nc(C(F)(F)F)nc3ccsc23)CCN1` gave NPYLR7 agonist -0.4 and NPYLR7 agonist max-min -0.2.
For COc1ccc(NC(=O)CCC2CCCN(c3cc(C)nc(N)n3)C2)c(C)c1 (stereo not drawn) the results were NPYLR7 agonist 12.8 and NPYLR7 agonist max-min 4.4.
Screening Ic1ccc(CSc2nnc(-c3cc(-c4ccccc4)nc4ccccc34)n2Cc2ccco2)cc1 returned NPYLR7 agonist -6.7 and NPYLR7 agonist max-min -11.0.
`COc1ccccc1-c1cc(C(=O)NCc2ccc(F)cc2)nc2cc(-c3ccccc3)nn12` gave NPYLR7 agonist 18.8&-1.2 and NPYLR7 agonist max-min 20.4&0.5.
`O=C(NC1CCCCCCC1)c1cn(-c2ccc3c(c2)OCCO3)nn1` gave NPYLR7 agonist 0.1 and NPYLR7 agonist max-min -1.3.
`COc1ccc(S(=O)(=O)N(C)C(C)C(O)c2ccccc2)cc1` (stereo not drawn) gave NPYLR7 agonist 19.9 and NPYLR7 agonist max-min 10.5.
Screening COc1ccc(-n2nnc3c(=O)n(Cc4ccc(Cl)cc4Cl)cnc32)cc1 returned NPYLR7 agonist 7.3 and NPYLR7 agonist max-min 11.6.
`CC(C)CN1CCC(CNC(=O)c2ccc(N3CCN(C)C(=O)C3)nc2)C1` (stereo not drawn) gave NPYLR7 agonist 24.8 and NPYLR7 agonist max-min 16.5.
COc1ccc2c(c1)CCN2S(=O)(=O)c1cc(C(=O)O)ccc1Cl was read as NPYLR7 agonist 14.6 and NPYLR7 agonist max-min 14.5.
`CCOC(=O)c1ccc(OC2CC3CCC(C2)N3C(=O)c2ccc(CSc3ccccc3CC)cc2)cc1` (stereo not drawn) gave NPYLR7 agonist 14.1 and NPYLR7 agonist max-min -1.2.
Screening COc1cccc(C(=O)NC(=S)N2c3ccccc3CC2C)c1OC (stereo not drawn) returned NPYLR7 agonist 2.8 and NPYLR7 agonist max-min 2.6.
`Cc1ncoc1C(=O)NC1CC(C)(C)Cc2c1cnn2-c1ccc(F)cc1` (stereo not drawn) gave NPYLR7 agonist 12.4 and NPYLR7 agonist max-min 5.3.
CCNc1ccnc(NCc2cccnc2N2CCN(c3ccccc3C)CC2)n1 was read as NPYLR7 agonist 3.7 and NPYLR7 agonist max-min -1.6.
O=C(NC(C(=O)NC1CC1)C1CCN(C(=O)C2CC2)CC1)c1ccccc1 (stereo not drawn) was read as NPYLR7 agonist 8.0 and NPYLR7 agonist max-min 7.8.
`CCCC1O[C@@H]2CC3C4CCC5=CC(=O)C=CC5(C)C4[C@@H](O)CC3(C)[C@]2(C(=O)CO)O1` (stereo partly drawn) gave NPYLR7 agonist -6.5 and NPYLR7 agonist max-min -13.6.
CC(C#N)Sc1nnc(-c2ccco2)n1C1CCCCC1 (stereo not drawn) was read as NPYLR7 agonist 5.8 and NPYLR7 agonist max-min 4.6.
For N#Cc1ccccc1Oc1cnccn1 the results were NPYLR7 agonist 0.1 and NPYLR7 agonist max-min -1.6.
Screening COc1ccc(C2=CCN(C(=O)Nc3nnc(C(C)C)s3)CC2)cc1 returned NPYLR7 agonist -6.7 and NPYLR7 agonist max-min -8.7.

Pulled by structure from the entries so far (2):
`Cc1csc(NC(=O)CSc2nc(=O)n(CC3CCCO3)c3c2CCC3)n1` (stereo not drawn) gave NPYLR7 agonist -0.3 and NPYLR7 agonist max-min -5.5.
`CC(C)CN1CCC(CNC(=O)c2ccc(N3CCN(C)C(=O)C3)nc2)C1` (stereo not drawn) gave NPYLR7 agonist 24.8 and NPYLR7 agonist max-min 16.5.

The listing picks up, starting 7 compounds before the break.
`Cc1ncoc1C(=O)NC1CC(C)(C)Cc2c1cnn2-c1ccc(F)cc1` (stereo not drawn) gave NPYLR7 agonist 12.4 and NPYLR7 agonist max-min 5.3.
CCNc1ccnc(NCc2cccnc2N2CCN(c3ccccc3C)CC2)n1 was read as NPYLR7 agonist 3.7 and NPYLR7 agonist max-min -1.6.
O=C(NC(C(=O)NC1CC1)C1CCN(C(=O)C2CC2)CC1)c1ccccc1 (stereo not drawn) was read as NPYLR7 agonist 8.0 and NPYLR7 agonist max-min 7.8.
`CCCC1O[C@@H]2CC3C4CCC5=CC(=O)C=CC5(C)C4[C@@H](O)CC3(C)[C@]2(C(=O)CO)O1` (stereo partly drawn) gave NPYLR7 agonist -6.5 and NPYLR7 agonist max-min -13.6.
CC(C#N)Sc1nnc(-c2ccco2)n1C1CCCCC1 (stereo not drawn) was read as NPYLR7 agonist 5.8 and NPYLR7 agonist max-min 4.6.
For N#Cc1ccccc1Oc1cnccn1 the results were NPYLR7 agonist 0.1 and NPYLR7 agonist max-min -1.6.
Screening COc1ccc(C2=CCN(C(=O)Nc3nnc(C(C)C)s3)CC2)cc1 returned NPYLR7 agonist -6.7 and NPYLR7 agonist max-min -8.7.
`CC1CCCCN1Cc1nc2c(c(=O)n(C)c(=O)n2C)n1CC(=O)c1ccccc1` (stereo not drawn) gave NPYLR7 agonist 6.0 and NPYLR7 agonist max-min 1.2.
For O=C(c1ccc2c(c1)OCCO2)N1CCCC(Nc2ccc(F)c(F)c2)C1 (stereo not drawn) the results were NPYLR7 agonist -1.1 and NPYLR7 agonist max-min -1.9.
For CNC(=S)N(C)CCCc1cc(-c2ccccc2)n(C)n1 the results were NPYLR7 agonist -1.4 and NPYLR7 agonist max-min -3.6.
Screening O=C(CNC(=O)c1ccc(Br)o1)NCCCCOc1ccccc1 returned NPYLR7 agonist -7.1 and NPYLR7 agonist max-min 15.7.
Screening Cc1ccc(NC(N)=Nc2nc(CSc3nnc(C)s3)cc(=O)[nH]2)c(C)c1 returned NPYLR7 agonist 3.2 and NPYLR7 agonist max-min 0.2.
Screening Cc1[nH]n(-c2nc3ccccc3s2)c(=O)c1C=NCC(C)C returned NPYLR7 agonist 3.3 and NPYLR7 agonist max-min 3.6.
Screening CNc1cccc(-c2ccc(O)cc2)n1 returned NPYLR7 agonist -1.0 and NPYLR7 agonist max-min -4.0.
CN(Cc1cn[nH]c1-c1ccc(F)cc1)C(=O)CN1CCCCCC1=O was read as NPYLR7 agonist 0.2 and NPYLR7 agonist max-min -5.6.
For Cn1nc(-c2cccs2)cc1C(=O)N1CCN2C(=O)CNC(=O)C2C1 (stereo not drawn) the results were NPYLR7 agonist 4.8 and NPYLR7 agonist max-min 1.2.
Screening CC(Cc1ccc2c(c1)OCO2)c1nccn1Cc1cccnc1 (stereo not drawn) returned NPYLR7 agonist 12.4 and NPYLR7 agonist max-min 9.3.
Screening Cc1c(C)n2c3c(=O)n(Cc4cccc5ccccc45)c(=O)n(C)c3nc2n1CCCl returned NPYLR7 agonist 4.4 and NPYLR7 agonist max-min 2.9.
For C[N+]1=C2C=CC=CC=C2SC12C([N+](=O)[O-])=CC([N+](=O)[O-])c1cccnc12 (stereo not drawn) the results were NPYLR7 agonist 3.2 and NPYLR7 agonist max-min 0.4.
Cn1ccnc1C(NC(=O)c1ccc(Br)cc1F)c1ccc(F)cc1 (stereo not drawn) was read as NPYLR7 agonist -4.2 and NPYLR7 agonist max-min -5.1.
Screening CSc1ncnc2c1sc1nc(N3CCOCC3)c3c(c12)CC(C)(C)OC3 returned NPYLR7 agonist 1.5 and NPYLR7 agonist max-min 0.9.
Screening CCC(C(=O)N1CCN(C(c2ccccc2)c2ccc(F)cc2)CC1)c1ccccc1 (stereo not drawn) returned NPYLR7 agonist -0.5 and NPYLR7 agonist max-min 7.6.
`Cc1ccc(NC(=O)c2cnn3c(C(F)(F)F)cc(-c4ccc(Br)cc4)nc23)cc1` gave NPYLR7 agonist 14.6 and NPYLR7 agonist max-min 7.3.
CC(C)SCC(=O)N1C[C@H](O)[C@@H](N2CCN(C)CC2)C1 was read as NPYLR7 agonist -7.2 and NPYLR7 agonist max-min -10.5.
`COc1ccc(CNC(=O)c2cccnc2N2CCN(C(=O)NCc3ccco3)CC2)cc1` gave NPYLR7 agonist -5.4 and NPYLR7 agonist max-min -12.2.
Screening COc1cc(C=C2N=C(c3cc(C)cc(C)c3)OC2=O)cc(OC)c1OCC(N)=O returned NPYLR7 agonist 1.0 and NPYLR7 agonist max-min -0.2.
COCC(=O)Nc1ccc(N(C)C)c(CN(CC2CCCO2)C(=O)Cc2cccs2)c1 (stereo not drawn) was read as NPYLR7 agonist 11.2 and NPYLR7 agonist max-min 7.2.
For Cc1cc(C)n(-c2cccc(-c3ccc(N)nc3)c2)n1 the results were NPYLR7 agonist 3.9 and NPYLR7 agonist max-min 0.2.
Cc1nc2cc(F)cc(C(=O)NCC3CCC3)c2nc1C was read as NPYLR7 agonist 6.5 and NPYLR7 agonist max-min 8.9.

From PubChem

An excerpt, so the mix of outcomes need not match the whole.
